Assay outcomes from PubChem.
CtBP-E1A inh: qHTS Assay for Inhibitors of the CtBP/E1A Interaction; CtBP / adenovirus E1A interaction (AlphaScreen); AlphaScreen GST-E1A/His-CtBP binding, 1536-well; hits give low values; control for the full effect not named in the record; activity change, % (concentration not given with the values); 0.49% of 340,000 active; in the data active means activity change below about -65%; inconclusive means about -30% to -65%; inactive means above about -30%; further: on the % scale 0 is the no-effect control and ±100 the full control effect
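Homogeneous bead-based format: GST-tagged E1A captured on glutathione donor beads, His-tagged CtBP on nickel acceptor beads; compounds precede bead addition by 2 h at 37 °C.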
gsp antagonist: qHTS for Antagonists of gsp, the Etiologic Mutation Responsible for Fibrous Dysplasia/McCune-Albright Syndrome: qHTS. gsp-mutant cells, cAMP HTRF, 30 min; control for the full effect not named in the record. Potency, µM (highest dose often 76.9 µM), for the others: at the top dose activity change, negative = inhibition, actives largely listed as inhibitors. 0.4% of 340,000 active. AID 624288, 2012; active = falling curve of any shape with a large fitted effect; inconclusive = falling curve, mostly with a smaller effect; inactive = flat or rising curve; cell line not stated here;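 further: intracellular cAMP measured with PDE inhibitor Ro 20-1724 present during compound exposure; potency means the concentration at half of the fitted maximal effect; on the % scale 0 is the no-effect control and ±100 the full control effect; nearly all actives have a fitted effect of over 65% in size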
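Cells in G418 medium, seeded 16-24 h, 37C; buffer exchange to DPBS + 1 mM CaCl2, 0.5 mM MgCl2, 0.05% BSA; cpds in DMSO + […] (300 uM stock), 30 min 37C; HTRF cAMP detection.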
D2 ag: Beta-Arrestin HTS for Positive Allosteric Modulators of the Human D2 Dopamine Receptor: Agonists; D(2) dopamine receptor (Homo sapiens), P14416; DiscoveRx PathHunter D2 beta-arrestin, luminescence, 90 min; 100% = 57 uM dopamine signal; activation, % (no concentration beside the values); 0.084% of 360,000 active; in the data active = activation above about 40%; inconclusive = about 15% to 40%; inactive = below about 15%; further: compound concentration not given in the record; the text of the record calls up to 30% inactive
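DiscoveRx PathHunter D2 beta-arrestin cells (2,100/well) attached overnight, then compound-stimulated 90 min at 37 C in HBSS/10 mM HEPES/0.1% Tween-20 buffer; beta-galactosidase complementation read by luminescence after 1 h at ambient temperature. Dopamine 57 uM final (EC100) as control.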
D2 PAM: Beta-Arrestin HTS for Positive Allosteric Modulators of the Human D2 Dopamine Receptor: Potentiators; D(2) dopamine receptor (Homo sapiens), P14416; DiscoveRx D2 beta-arrestin cells, luminescence, 90 min; 100% = 57 uM dopamine signal; potentiation, % (concentration not given with the values); 0.23% of 360,000 active; AID 624464, 2012; active = potentiation of 50% or more; inconclusive = 30% to 50%; inactive = 30% or less;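 further: compound concentration not given in the record; tested on top of an EC20 dose of dopamine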
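PathHunter beta-arrestin assay in DiscoveRx D2 cells. Compounds were added with an EC20 of dopamine (50 nM final) for 90 min at 37 deg C. Luminescence was read 1 h after detection reagent, with 57 uM dopamine as the EC100 control.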
gsp ag: qHTS for Agonist of gsp, the Etiologic Mutation Responsible for Fibrous Dysplasia/McCune-Albright Syndrome: qHTS. gsp mutant cells, cAMP HTRF, 30 min; control for the full effect not named in the record. Potency, µM (series often up to 76.9 µM), without a hit: at the highest dose activation (cAMP increase), most hits filed as activators. 0.13% of 340,000 active. AID 624287, 2012; active = well fitted activation curve with a large enough effect; inconclusive = small, poorly fitted or top-dose-only effect, or another doubt; inactive = no such curve, though single readings can be large or run the other way; cell line not stated here;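 further: phosphodiesterase inhibitor Ro 20-1724 added with compounds to block cAMP breakdown; potency means the concentration at half of the fitted maximal effect; nearly all actives have a fitted effect of over 60% in size; about a fifth of the inactives were tested at one dose only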
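Cells stably selected in G418 were plated at 2000/well, grown 16-24 hr, then given compounds in DMSO with the PDE inhibitor […] (300 uM solution added) for 30 min at 37C; cAMP was read by HTRF.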
Six1-Eya2 blk: qHTS Assay for Inhibitors of the Six1/Eya2 Interaction | Homeobox protein SIX1 (Homo sapiens) + Protein phosphatase EYA2 (Homo sapiens), … | AlphaScreen GST-Six1/His-Eya2 binding, biochemical; hits give low values; control for the full effect not named in the record | AID 651725, 2012 | activity change, % (no concentration beside the values) | 0.56% of 360,000 active; in the data active = activity change below about -65%; inconclusive = about -30% to -65%; inactive = above about -30%; further: on the % scale 0 is the no-effect control and ±100 the full control effect; compound concentration not given in the record
Target sequence (O00167 whole entry, looked up): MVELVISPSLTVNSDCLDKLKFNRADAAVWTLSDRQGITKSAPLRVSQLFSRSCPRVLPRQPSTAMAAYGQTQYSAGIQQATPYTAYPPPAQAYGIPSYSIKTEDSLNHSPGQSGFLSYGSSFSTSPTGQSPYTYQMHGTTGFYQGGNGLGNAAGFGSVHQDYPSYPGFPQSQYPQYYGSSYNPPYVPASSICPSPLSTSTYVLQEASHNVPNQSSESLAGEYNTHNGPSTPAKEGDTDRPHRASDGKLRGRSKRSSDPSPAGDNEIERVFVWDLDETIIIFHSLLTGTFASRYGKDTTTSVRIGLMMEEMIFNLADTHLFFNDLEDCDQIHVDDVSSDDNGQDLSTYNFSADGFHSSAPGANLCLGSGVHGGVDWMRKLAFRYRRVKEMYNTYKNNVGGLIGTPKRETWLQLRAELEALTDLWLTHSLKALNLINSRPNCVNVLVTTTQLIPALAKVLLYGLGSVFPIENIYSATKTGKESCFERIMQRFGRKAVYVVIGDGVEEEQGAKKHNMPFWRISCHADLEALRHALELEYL
Target sequence (Q15475 whole entry, looked up): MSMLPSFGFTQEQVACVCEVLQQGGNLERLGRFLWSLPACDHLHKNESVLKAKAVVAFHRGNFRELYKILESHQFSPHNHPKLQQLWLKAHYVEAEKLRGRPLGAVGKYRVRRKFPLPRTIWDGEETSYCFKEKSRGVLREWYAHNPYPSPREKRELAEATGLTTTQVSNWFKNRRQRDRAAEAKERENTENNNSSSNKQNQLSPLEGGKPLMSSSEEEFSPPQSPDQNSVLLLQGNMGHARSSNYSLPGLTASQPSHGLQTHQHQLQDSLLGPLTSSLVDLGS
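GST-Six1 + His-Eya2 (5X stock: 250/500 nM); Tris pH 8.0, 300 mM NaCl, 0.05% BSA, 0.02% Tween 20; GSH donor/Ni acceptor beads; 1 h 37 °C dark; AlphaScreen readout.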
* = called active by the depositor; ? = inconclusive; . = no result given; [ ] = another dose, or the depositor's remark.

Order of values: Six1-Eya2 blk | gsp antagonist | gsp ag | D2 ag | CtBP-E1A inh | D2 PAM
Cc1ccc(S(=O)(=O)N(C)C)cc1NC(=S)NC(C)CCC(C)C (centres undefined)
→ 18.9 | -5.4% | -9.0%[15.4 µM] | -2.7 | 0.0 | -37.0
O=C(NCC1CC1)c1ccc(-c2cn[nH]c2)c2ccoc12
→ -11.6 | . | . | -2.1 | -27.1 | 0.7
CN(CC(=O)Nc1ccc(F)cc1)C(=O)c1cc(-c2ccco2)nc2ccccc12
→ -17.2 | -18.2% | 23.1%[15.4 µM] | -4.2 | -0.5 | -20.3
Cc1ccc(C)c2c1sc(=NC(=O)CN1C(=O)CCC1=O)n2C
→ 6.0 | 1.3% | ? | -5.1 | 0.6 | -15.3
Cc1ccc2nc(-c3ccc(Br)o3)oc(=O)c2c1
→ 0.1 | -18.3% | -0.1% | -3.6 | 5.4 | -5.2
COc1cc(C(=O)NCCCn2ccnc2)cc(OC)c1OC
→ 9.7 | -11.6% | -2.8% | -8.1 | . | -8.8
COc1ccc(N(Cc2cc3ccccc3[nH]c2=O)S(C)(=O)=O)cc1
→ 3.0 | 0.1% | 12.8% | -2.5 | -14.0 | -10.0
CCOC(=O)c1cc(C(=O)c2cc(Cl)ccc2O)coc1=N
→ -5.0 | -5.0% | -9.3%[15.4 µM] | 1.7 | 0.1 | 6.3
COc1ccc(C(=O)C2CCCN(C(=O)CCC3=NNC(=O)CC3)C2)c(C)c1 (centres undefined)
→ -1.1 | 1.1% | -1.6%[15.4 µM] | -4.9 | 3.1 | -2.1
COc1ccc(CCN(C)CC(O)COc2ccc(C(C)=O)cc2OC)cc1OC (centres undefined)
→ -8.4 | 1.2% | ? | -2.1 | 2.2 | -8.3
COc1cccc(N(CC(=O)NCC2CCCO2)C(=O)CCC(=O)Nc2nccs2)c1 (centres undefined)
→ -2.6 | . | -4.7%[15.4 µM] | 0.7 | -2.6 | -34.0
Cc1ccc(NC(=O)CSc2nnc(CNC(=O)c3cccs3)o2)cc1
→ 6.6 | -1.6% | ? | -2.2 | -9.6 | -1.4
O=C(CSC1=NC(=O)C(Cc2ccccc2)C(=O)N1)NC1CCCCC1 (centres undefined)
→ 4.0 | -4.0% | -42.6%[inhibitor] | -4.1 | 0.7 | -9.9
Cc1ccc2nc(SCC(=O)O)nc(C)c2c1
→ 1.5 | -6.2% | 5.2% | -0.4 | 4.0 | -8.4
CC(C)OC(=O)C(C)Oc1ccc(C(=O)NCCc2ccccc2)cc1 (centres undefined)
→ 0.6 | -8.0% | 27.5% | -3.3 | 6.7 | -1.9
O=C(CSc1nc(=O)n2ccccc2n1)N1N=C(c2cccs2)CC1c1ccc(F)cc1 (centres undefined)
→ -16.5 | -0.1% | -5.7% | -5.5 | 5.6 | -32.7
COc1ccc(C(=O)CCc2ccccc2)cc1
→ 36.0 | -8.4% | -0.6% | -3.8 | 14.7 | -0.4
Cc1cc(C)n2nc(SCC(=O)N(CCC#N)c3ccccc3F)nc2n1
→ -1.9 | 7.4% | 6.7% | -2.0 | 0.5 | 0.3
O=C(NCc1ccc(F)cc1)Nc1cccc([N+](=O)[O-])c1
→ -16.0 | -1.4% | 11.3% | -4.5 | . | 12.3
Cc1cc(OC(C)C(=O)NC2CCN(Cc3ccccc3)CC2)c2c(C)cc(=O)oc2c1 (centres undefined)
→ -4.9 | -23.0% | -0.1% | 2.9 | 0.5 | -33.4
NS(=O)(=O)c1ccc(CNC(=O)c2ccc3c(=O)n4c(nc3c2)CCC4)cc1
→ -23.2 | 16.3% | 23.1% | 7.8 | -6.9 | 19.3
COc1ccc(NC(=O)CS(=O)(=O)c2cn(CC(=O)N(C(C)C)C(C)C)c3ccccc23)c(OC)c1
→ 6.5 | -23.2% | -6.8%[15.4 µM] | 0.2 | -3.5 | 11.7
O=C(CN1C(=O)NC(c2ccc(F)cc2)C1=O)NC1CCCCC1 (centres undefined)
→ 4.6 | 7.5% | 2.0% | -0.7 | 4.1 | -11.1
O=C(Cn1cccc1C(=O)c1ccccc1)NCc1ccc2c(c1)OCO2
→ -12.4 | -3.7% | -22.8% | -2.5 | -3.9 | -7.3
C/C(=N\NC(=O)C(O)c1ccccc1)c1ccc(Cl)s1 (centres undefined)
→ -1.1 | -2.4% | 16.8% | 3.0 | 0.6 | 6.1
COC(=O)c1cccc(S(=O)(=O)N(Cc2ccco2)Cc2cc3cc(OC)ccc3[nH]c2=O)c1
→ -13.4 | -14.1% | -12.9% | -0.6 | -16.9 | -5.3
OC(COCc1ccccc1)CN1CCN(c2ccccc2F)CC1 (centres undefined)
→ 4.4 | 5.9% | 7.4% | 6.2 | 0.7 | -29.5
COc1ccc(S(=O)(=O)N2CCC(Cc3ccccc3)CC2)cc1NC(C)=O
→ -0.3 | 1.8% | -1.9% | -4.2 | 6.0 | -4.0
O=C(CN1C2=NCCN2c2ccccc21)c1ccc2c(c1)OCO2
→ 19.8 | 3.5% | -9.7% | 0.5 | 46.9 | -6.4
CC(=O)Nc1cccc(NC(=O)Nc2ccc(C(C)=O)cc2)c1
→ 5.9 | -2.6% | -0.5% | 1.3 | 4.3 | -0.3

(listing goes on)
Order of values: Six1-Eya2 blk | gsp antagonist | gsp ag | D2 ag | CtBP-E1A inh | D2 PAM
CCOc1ccc(N2CSC3=C(C#N)C(c4ccco4)CC(=O)N3C2)cc1 (centres undefined)
→ 6.5 | 0.7% | 11.4% | -2.3 | -0.5 | -11.5
Cc1cc(C)cc(NC(=S)Nc2ccc(Cl)c(Cl)c2)c1
→ -7.6 | ? | -21.8% | -1.3 | -2.7 | -10.5
CCOC(=O)CSc1nc(N2CCOCC2)c2c(c1C#N)CC(C)(C)OC2
→ 0.1 | -16.3% | 0.1% | 0.8 | . | 4.1
CC(C)CNC(=O)c1cccc(NC(=O)CCc2ccccc2)c1
→ 7.7 | -0.1% | 23.8% | -4.6 | 1.2 | -2.6
C=C(C)C(=O)Nc1ccc2nn(-c3ccccc3O)nc2c1
→ 1.3 | . | 7.0% | -5.2 | -2.6 | -11.9
COCCNC(=O)c1cc2nc(-c3ccccc3)cc(C)n2n1
→ 4.5 | -9.8% | 7.8%[15.4 µM] | -3.1 | 1.3 | -1.0
Cc1ccc2c(c1)N(C(=O)CCC(=O)NCCCN1CCOCC1)CC(C)O2 (centres undefined)
→ 0.9 | 7.1% | -32.1%[inhibitor] | -1.0 | 1.8 | -2.5
C=CCN(CC=C)C(=O)c1ccc(OC2CCN(Cc3ccccn3)CC2)cc1
→ 1.1 | 12.6% | -11.2%[15.4 µM] | -21.1 | -0.4 | -14.1
CC1Cc2nc(SCC(=O)N3CCCCC3)n(C)c(=O)c2S1 (centres undefined)
→ 3.6 | . | -18.1% | -2.8 | 1.9 | -8.6
CC(C)=CCN1CCN(Cc2nc(C(C)C)cs2)CC1CCO (centres undefined)
→ 18.9 | 2.1% | -10.3%[15.4 µM] | -0.8 | 3.0 | -8.0
COc1ccccc1/C=N/NC(=O)NC12CC3CC(CC(C3)C1)C2
→ 7.1 | -11.9% | -19.5% | 1.2 | 2.7 | -4.1
CCOC(=O)N1CCC(N(CCN(C)C)C(=S)Nc2cccc(SC)c2)CC1
→ -7.9 | -4.8% | -7.8%[15.4 µM] | 1.8 | -9.2 | -4.1
CC(=O)c1cccc(NC(=O)c2cc3ccccn3n2)c1
→ 5.0 | -1.0% | 2.3% | -6.2 | 0.9 | -11.2
COC(=O)c1ccc(NC(=O)CSc2nc3ncccc3[nH]2)cc1
→ 6.0 | 7.4% | 3.4%[15.4 µM] | -5.6 | 0.0 | -8.1
COc1cccc(NC(=O)CN(C)C(=O)Cc2c(C)nc3ccccc3c2C)c1
→ -1.6 | 2.2% | ? | 1.5 | 2.4 | -3.6
O=C(NCCCN1CCOCC1)c1cn(-c2ccccc2)nc1-c1ccc(F)cc1
→ -4.9 | -3.1% | 6.7%[15.4 µM] | -6.3 | 5.2 | -16.5
CN(C)CCCn1c2c3ccccc3ccc2c2oc(=O)c3ccccc3c21
→ 38.4 | 6.8% | 23.5% | -7.9 | 2.8 | -31.2
CC(C)c1cc(C(=O)NC2CCCCC2)no1
→ 7.1 | 1.1% | 0.0% | 0.6 | 6.0 | 8.6
Cc1ccccc1NS(=O)(=O)c1ccc(OCC(=O)NCC2CCCO2)cc1 (centres undefined)
→ -2.6 | 5.1% | -21.9% | -4.9 | 4.8 | 10.1
O=c1cc(Nc2cccc(Br)c2)[nH]c(=O)[nH]1
→ 5.3 | -8.5% | 14.3%[15.4 µM] | -2.8 | . | -5.2
CC(C)OCC(O)CSc1ccccn1 (centres undefined)
→ 4.1 | 2.5% | -15.2% | -0.5 | 2.0 | -4.0
Cc1ccc(NC(=O)CN(C)S(=O)(=O)c2ccc3c(c2)n(C)c(=O)c(=O)n3C)c(C)c1
→ -0.1 | -3.4% | ? | -5.1 | 8.7 | -6.2
O=C(CSc1nncs1)NCCCc1ccccc1
→ -2.1 | -2.2% | 0.1% | -1.5 | 5.7 | -7.6
CCOc1ccccc1CN1CCN(CCCc2ccccc2)CC1CCO (centres undefined)
→ -13.8 | 3.4% | -36.9%[inhibitor] | -4.7 | -16.8 | -5.8
Cc1ccc(S(=O)(=O)N2CCC(NC(=O)c3cccc(C)c3)CC2)cc1
→ 15.6 | 14.9% | -2.8%[15.4 µM] | -2.1 | -2.7 | 0.9
CN1CCN(c2ccccc2NC(=O)c2ccc(N3CCCC3)c([N+](=O)[O-])c2)CC1
→ -21.8 | -15.7% | 18.2%[15.4 µM] | -0.1 | ? | -21.0
CC(NC=C1C(=O)OC(C)(C)OC1=O)C(=O)O (centres undefined)
→ 3.9 | -15.1% | 8.6% | 0.0 | . | -8.6
CC(=O)N1CCN(C(=O)CCCNC(=O)c2ccc(Cl)cc2)CC1
→ 3.9 | -2.3% | 3.0% | -0.6 | 4.0 | -2.7

A second format for some results above.
| smiles | Six1-Eya2 blk | gsp antagonist | gsp ag | D2 ag | CtBP-E1A inh | D2 PAM |
| --- | --- | --- | --- | --- | --- | --- |
| CN(C)CCCn1c2c3ccccc3ccc2c2oc(=O)c3ccccc3c21 | 38.4 | 6.8% | 23.5% | -7.9 | 2.8 | -31.2 |
| CC(C)c1cc(C(=O)NC2CCCCC2)no1 | 7.1 | 1.1% | 0.0% | 0.6 | 6.0 | 8.6 |
| Cc1ccccc1NS(=O)(=O)c1ccc(OCC(=O)NCC2CCCO2)cc1 (centres undefined) | -2.6 | 5.1% | -21.9% | -4.9 | 4.8 | 10.1 |
| O=c1cc(Nc2cccc(Br)c2)[nH]c(=O)[nH]1 | 5.3 | -8.5% | 14.3%[15.4 µM] | -2.8 | . | -5.2 |
